Assay outcomes deposited in PubChem BioAssay by National Center for Advancing Translational Sciences (NCATS).
PINK1 modulator = PINK1 expression modulation; PINK1 immunofluorescence, high-content cytometry, 24 h; 0.2% of 410,000 active; Potency, µM (titrated, usually from 76.6 µM), without a hit: top-dose activation (PINK1 increase), usual class: activators; active = well fitted activation curve with a large enough effect; inconclusive = small, poorly fitted or top-dose-only effect; inactive = flat fitted curve, though single readings scatter; cell line not stated here;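 note: potency is the fitted concentration of half-maximal effect; % of control where 0% means no effect; nearly all actives have a fitted effect of over 65% in size; a mitochondrial uncoupler was the plate control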
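PINK1 protein, normally rapidly degraded, was detected by immunofluorescence after 24 hour compound treatment of a stable cell line. Titration data (5 concentrations) came from laser-scanning cytometry, with CCCP-treated wells as controls.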
CtBP-E1A blk = CtBP/E1A binding inhibition | AlphaScreen GST-E1A/His-CtBP binding, 1536-well; hits give low values; control for the full effect not named in the record | 0.49% of 340,000 active | AID 651724 | activity change, % (concentration not given with the values); in the data active means activity change below about -65%; inconclusive means about -30% to -65%; inactive means above about -30%; note: % is set by controls: 0 for no effect and ±100 for the full control effect
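GST-E1A and His-tagged CtBP (125 nM each as 5X stock) were preincubated with pin-transferred compound for 2 h at 37 °C in the dark, then glutathione donor and nickel acceptor beads were added for 1 h before AlphaScreen reading.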
TRPML1 ag = human mucolipin-1 channel agonism; Q9GZU1; TRPML1-expressing cells, Ca2+ dye fluorescence, FDSS; host cell line not named in the record; reference of the full effect not given here; activation, % (no concentration beside the values); 0.12% of 410,000 active; AID 624414; in the data active = activation above about 50%; inconclusive = about 30% to 50%; inactive = below about 30%; note: 0% is about no effect; the text of the record puts the active cut at 80%
Target sequence (Q9GZU1 whole entry, looked up): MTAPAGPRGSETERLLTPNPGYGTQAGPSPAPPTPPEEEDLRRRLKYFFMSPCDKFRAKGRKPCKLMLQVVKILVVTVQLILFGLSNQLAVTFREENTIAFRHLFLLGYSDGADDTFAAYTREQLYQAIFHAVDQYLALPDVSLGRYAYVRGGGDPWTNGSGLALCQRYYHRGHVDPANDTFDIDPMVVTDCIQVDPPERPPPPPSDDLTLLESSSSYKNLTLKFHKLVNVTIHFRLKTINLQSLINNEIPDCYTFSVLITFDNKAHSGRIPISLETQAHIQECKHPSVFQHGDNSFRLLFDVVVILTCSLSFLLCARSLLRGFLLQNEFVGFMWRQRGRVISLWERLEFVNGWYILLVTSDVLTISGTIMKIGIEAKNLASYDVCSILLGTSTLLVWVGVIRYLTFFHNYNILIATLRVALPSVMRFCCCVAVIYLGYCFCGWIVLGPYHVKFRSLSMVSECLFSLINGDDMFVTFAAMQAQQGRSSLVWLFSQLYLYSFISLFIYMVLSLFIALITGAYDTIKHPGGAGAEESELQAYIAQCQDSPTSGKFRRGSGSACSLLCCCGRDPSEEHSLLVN
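Calcium fluorescence on an FDSS kinetic reader gave the read-out. Tet-induced TRPML1-DL cells were plated overnight, dye-loaded (Ca8 with quencher, 45-90 min, room temperature, dark), then read 110 s after compound addition, and again 110 s after 4uM final 54-4 (EC80).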
Six1-Eya2 inh = blocks human Six1 binding to Eya2; AlphaScreen GST-Six1/His-Eya2 binding, biochemical; hits give low values; control for the full effect not named in the record; activity change, % (no concentration beside the values); 0.56% of 360,000 active; AID 651725; in the data active = activity change below about -65%; inconclusive = about -30% to -65%; inactive = above about -30%; note: % is set by controls: 0 for no effect and ±100 for the full control effect; compound concentration not given in the record
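AlphaScreen with GST-Six1 and His-Eya2 (5X mix: 250 nM and 500 nM), glutathione donor and nickel acceptor beads; buffer 50 mM Tris pH 8.0, 300 mM NaCl, 1 mM TCEP; 1 h at 37 C in the dark.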
D2 agonist = human D2 receptor agonism in beta-arrestin assay. activation, % (no concentration beside the values). P14416. 0.084% of 360,000 active. DiscoveRx PathHunter D2 beta-arrestin, luminescence, 90 min; 100% = 57 uM dopamine signal. AID 624465; in the data active = activation above about 40%; inconclusive = about 15% to 40%; inactive = below about 15%; note: compound concentration not given in the record; the text of the record calls up to 30% inactive
Target sequence (P14416 whole entry, looked up): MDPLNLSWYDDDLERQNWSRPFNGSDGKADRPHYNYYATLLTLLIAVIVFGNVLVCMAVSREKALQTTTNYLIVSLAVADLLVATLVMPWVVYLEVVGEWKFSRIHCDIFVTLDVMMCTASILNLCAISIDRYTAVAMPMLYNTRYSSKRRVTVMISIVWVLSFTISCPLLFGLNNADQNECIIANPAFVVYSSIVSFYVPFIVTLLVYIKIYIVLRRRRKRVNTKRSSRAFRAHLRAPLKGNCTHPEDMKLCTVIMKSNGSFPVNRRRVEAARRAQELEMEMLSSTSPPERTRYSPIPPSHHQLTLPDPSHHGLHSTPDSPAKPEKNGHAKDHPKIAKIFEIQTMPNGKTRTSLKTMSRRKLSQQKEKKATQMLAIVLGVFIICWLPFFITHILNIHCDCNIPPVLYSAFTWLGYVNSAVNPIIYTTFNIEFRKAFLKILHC
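DiscoveRx PathHunter D2 beta-arrestin cells (2,100/well) attached overnight, then compound-stimulated 90 min at 37 C in HBSS/10 mM HEPES/0.1% Tween-20 buffer; beta-galactosidase complementation read by luminescence after 1 h at ambient temperature. Dopamine 57 uM final (EC100) as control.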
D2 potentiator = potentiates the human D2 dopamine receptor allosterically | P14416 | DiscoveRx D2 beta-arrestin cells, luminescence, 90 min; 100% = 57 uM dopamine signal | potentiation, % (test concentration not listed) | 0.23% of 360,000 active | AID 624464; active = potentiation of 50% or more; inconclusive = 30% to 50%; inactive = 30% or less;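 note: compound concentration not given in the record; tested on top of an EC20 dose of dopamine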
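PathHunter beta-arrestin assay in DiscoveRx D2 cells. Compounds were added with an EC20 of dopamine (50 nM final) for 90 min at 37 deg C. Luminescence was read 1 h after detection reagent, with 57 uM dopamine as the EC100 control.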
The depositor's hits bear a star; ? = inconclusive; · = no result given; & = joins results of further samples; [ ] = remark or other dose.

SMILES	PINK1 modulator	CtBP-E1A blk	TRPML1 ag	Six1-Eya2 inh	D2 agonist	D2 potentiator
COCC(C)n1c(C)cc(C(=O)COC(=O)c2nn(C)c(=O)c3ccccc23)c1C (configuration not stated)	1.2%	-15.8	0.6	-16.6	-4.9	0.8
COc1ccc2cc(OCC(=O)NNC(=O)Nc3ccc(F)cc3)ccc2c1	-0.2%	-9.5	-0.4	20.7	-1.4	-3.7
C[C@@H]1CN([C@@H](C)CO)C(=O)c2cc(Br)cnc2O[C@H]1CN(C)C(=O)C1CC1	0.4%	4.7	-0.1	7.6	-7.2	-0.9
COc1ccc(C(=O)OCCOc2ccccc2C(C)=O)c(O)c1	-1.4%	10.5	5.5	14.4	4.9	-19.5
CCN(CC)CCNC(=O)c1ccc2c(=O)n(CCc3ccccc3)c(=O)[nH]c2c1	-0.5%	-3.6	0.4	2.7	-1.7	-4.3
COc1cccc(CNC(=O)C2CCC(=O)N(CCc3cccc(F)c3)C2)c1 (configuration not stated)	0.7%	3.8	0.2	-0.7	-4.4	-2.4
NC(c1ccccc1)c1cccs1 (configuration not stated)	1.8%	0.0	0.3	9.6	-4.7	-7.8
COc1ccc([N+](=O)[O-])cc1NC(=O)COC(=O)C12CC3CC(CC(O)(C3)C1)C2	3.1%	3.8	-0.2	-1.1	-1.1	-10.6
COc1cc(C2=NOC(C(=O)Nc3ccc(C)cc3)C2)cc(OC)c1OC (configuration not stated)	7.7%[38.3 µM]	-0.8	-0.5	-2.1	-3.0	9.3
COc1c(S(=O)(=O)N2CCCC2)ccc(Cl)c1Cl	0.0%	1.2	0.9	2.8	-5.6	-22.7
CN(C)c1ccc(NC(=O)COC(=O)c2cc(Cl)ccc2[N+](=O)[O-])cc1	-1.0%	-29.6	1.9	?	12.0	9.0
O=C(NC1CCCC1)C(c1ccccn1)N(C(=O)c1csnn1)C1CC1 (configuration not stated)	7.4%[38.3 µM]	-9.7	-0.5	-4.8	-0.8	-2.0
Cc1ccc(NC(=O)[C@H](Cc2ccccc2)NC(=O)CC[C@H]2O[C@@H](n3ccc(=O)[nH]c3=O)[C@H](O)[C@@H]2O)cc1C	4.2%	6.4	0.1	1.7	3.2	-0.1
CCN1Cc2cc(OC)ccc2-c2ccccc2S1(=O)=O	-0.8%	-22.5	-0.3	8.7	1.2	·
O=C(O)c1ccc(COc2ccc(Cl)cc2)o1	-0.8%	2.7	0.3	6.8	-2.0	-17.1
CCc1ccc([C@@H]2CC(=O)[C@@H]3CN(S(=O)(=O)c4ccccc4)[C@H](c4ccc(OC)cc4)C[C@@H]3N2S(=O)(=O)c2ccc(C)cc2)cc1	1.8%	-8.9	1.1	-9.4	-3.2	-8.4
COCCNC(=O)CCn1c(=O)oc2ccccc21	-2.1%	8.3	2.9	1.3	-2.4	-10.9
CCOc1ccc(NC(=O)CCNS(=O)(=O)c2ccc3c(c2)oc(=O)n3C)cc1	0.0%&0.8%	1.9	-0.3&-0.1	0.7	-3.3	-12.2
Cc1ccc2nc(Cl)c(CN(Cc3cccs3)C(=O)C3CC3)cc2c1	-4.4%[38.3 µM]	27.9	0.6	13.8	1.7	-4.7
Oc1ccccc1CN1CCCC(N2CCN(c3cccc(C(F)(F)F)c3)CC2)C1 (configuration not stated)	11.6%	-4.2	1.4	-23.7	3.2	-1.5
CC(=O)Nc1cc2c(cc1NC(=O)Cn1nc(-c3ccccc3F)ccc1=O)OCCO2	5.1%[38.3 µM]	1.4	2.7	-0.3	0.4	-9.9
CCOC(=O)c1c(C)[nH]c(C)c1C(=O)CSc1nnc(N)s1	-0.8%	-13.2	0.5	0.3	-0.2	-2.2
CCCS(=O)(=O)NC(=O)C1(C)CCN(C(=O)c2cc3ccccc3s2)C1 (configuration not stated)	2.1%	6.5	-0.3	2.4	4.4	2.6
CCOC(=O)C1CCN(C(=O)Nc2ccc3oc(C)nc3c2)CC1	·	11.1	0.8	5.8	-1.7	-3.2
Cc1cccc(C(=O)OCC(=O)NN2C(=O)NC3(CCC(C)CC3)C2=O)c1O (configuration not stated)	3.3%	-0.5	1.5	-1.9	-0.3	6.2
CC(C)CCC(C)NC(=O)CN1C(=O)NC(C)(c2ccc3ccccc3c2)C1=O (configuration not stated)	1.9%	0.4	1.4	-4.8	-6.1	-16.6
O=C(COc1ccc(Br)cc1)Nc1ccccc1N1CCCC1	5.7%	·	1.6	-13.4	-4.9	-10.3
COc1ccc(Cl)cc1-c1cc(C(=O)NCc2cccc(Cl)c2)[nH]n1	8.8%	-6.0	2.7	-28.9	1.9	-13.6
CN1CCN(CCCNC(=O)c2ccc(NC(=O)C3=CSCCO3)cc2)CC1	2.1%	·	0.6	0.3	5.2	-1.2
COc1ccc(CN2CCNC(=O)C2CC(=O)NCCCn2nnc3ccccc32)cc1C (configuration not stated)	-0.2%	0.9	-0.6	-2.5	-1.4	-10.3
O=[N+]([O-])c1ccc(N2CCN(c3ccccc3Cl)CC2)cn1	0.7%	0.1	0.6	-5.2	-4.0	-11.5
CC(CCC(=O)O)C1CCC2C3C(O)CC4CC(O)CCC4(C)C3CC(O)C12C (configuration not stated)	0.6%	8.1	-0.4	2.7	-4.5	6.8
Cc1c(Cl)cccc1NC(=S)NC1CCN(Cc2ccccc2)CC1	3.3%	2.7	6.9	-5.8	0.5	-37.6
O=C(NCc1cccnc1)c1ccc2sc([C@H]3C[C@H](O)[C@@H](CO)O3)nc2c1	1.9%	-2.0	0.3	-2.5	-7.2	-10.6
COc1cc(OC)c(C(=O)Nc2cc(Cl)ccc2-n2cncn2)cc1OC	4.1%	0.5	-0.4	9.6	-5.3	-2.4
O=C(CSCc1ccccc1Br)N/N=C/c1ccc(OCC(=O)N2CCCCC2)cc1	-1.1%	-0.9	1.6	4.7	1.0	-5.3
O=C(c1ccccc1NS(=O)(=O)c1ccc(F)cc1)N1CCc2ccccc21	4.6%	1.2	0.1	3.7	-2.9	17.6
CN(Cc1ccccc1)C(=O)CCn1c(=O)c2cccn2c2cccnc21	0.3%	-16.2	-0.6	3.5	-3.7	-5.5
Brc1ccc(OCc2nnc(SCC3CCCCC3)o2)cc1	2.8%	-4.1	2.1	75.7	-4.7	-0.4
N=C1C(c2ccccc2)=C(O)CN1c1cccc(O)c1	0.1%	0.0	-0.6	1.4	-1.9	-6.6
O=[N+]([O-])c1cccc(-n2nnnc2CNCc2ccccc2)c1	0.1%	-5.1	-0.8	0.7	-1.3	-6.9
CC(C)CN(C(=O)c1cccc(Cl)c1)c1c(N)n(CC(C)C)c(=O)[nH]c1=O	1.1%	7.8	-0.7	2.2	5.2	2.8
Cc1ccc(C)c(OCCCN2CCc3ccccc3C2)c1	14.0%	15.1	-0.4	0.7	4.2	-27.0
O=C(NC(c1ccccc1)c1c(O)ccc2ccccc12)c1ccccc1Cl (configuration not stated)	1.8%[38.3 µM]	0.2	0.9	-9.0	-0.8	-4.7
CCOC(=O)CSC1=Nc2ccccc2C2=NC(CC(=O)NCc3ccc4c(c3)OCO4)C(=O)N12 (configuration not stated)	-0.5%	3.4	1.5	3.9	0.5	-2.5
c1ccc(-c2nnc3sc(-c4ccncc4)nn23)cc1	0.8%[38.3 µM]	?	0.4	?	-2.8	-11.4
CCOC(=O)c1ccc(Nc2cc(C)nc3ncnn23)cc1	-4.1%[38.3 µM]	-12.4	2.4	-12.9	1.0	-1.6
CSc1ncccc1C(=O)OCC(=O)N1CC2(C)CC1CC(C)(C)C2 (configuration not stated)	1.7%	-2.6	-0.1	-7.0	0.2	-10.9
O=C(Nc1cc(S(=O)(=O)N2CCCCC2)ccc1N1CCCCC1)c1ccncc1	-1.1%	·	0.7	-1.7	-3.9	-10.4
O=S1(=O)C[C@H](N2CCC(Cc3ccccc3)CC2)[C@@H](COCc2ccccc2)N1	1.0%	-2.2	-0.2	-9.5	-0.7	-8.6
COc1ccc(NC(=S)NNC(=O)c2ccc(S(=O)(=O)N3CCOCC3)cc2)cc1	1.1%	-4.6	1.2	3.6	-11.1	-9.5
CCOc1ccc(CCNC(=O)c2cccc(S(=O)(=O)N3CCN(C(C)=O)CC3)c2)cc1OCC	-1.4%	-8.9	0.2	3.8	-0.1	9.1
COc1ccc(NC(=O)Nc2ccc3nsnc3c2)cc1	·	8.6	-0.3	-4.7	0.8	-10.2
Cc1ccc(S(=O)(=O)c2ccc(-n3nc(C)cc3N)cc2)cc1	-1.3%	0.7	0.2	-11.6	4.9	3.3
Cc1ccc(S(=O)(=O)Nc2c(C)n(C)n(-c3ccccc3)c2=O)cc1C(=O)NCc1ccccn1	0.1%	1.5	0.9	-0.8	-1.3	-1.6
CCOc1ccc(CNC(=S)N/N=C/c2cccnc2)cc1	2.2%	-10.6	2.0	-3.8	-3.3	1.5
Clc1ccc(C2=Nn3c(nnc3-c3n[nH]c4c3CCC4)SC2)cc1Cl	0.0%	-21.6	1.5	?	-3.2	-8.1
COC(=O)c1sccc1NC(=O)CSc1ccc(Cl)cc1	2.4%	15.9	3.6	24.9	-0.1	-13.7
O=C(COC(=O)c1ccc[nH]c1=O)NCCCc1ccccc1	1.7%	5.6	0.3	4.8	-3.5	-1.6
O=C(Nc1ccccc1)Nc1nnc(Cc2ccc([N+](=O)[O-])cc2)s1	?	-1.1	1.3	-1.3	6.1	24.2
Next records
SMILES	PINK1 modulator	CtBP-E1A blk	TRPML1 ag	Six1-Eya2 inh	D2 agonist	D2 potentiator
CCOc1ccc(C2C(C(=O)O)CCC(=O)N2C2CCCCC2)cc1 (configuration not stated)	0.2%	·	-0.4	17.0	-2.1	-3.4
Cc1cnc(NC(=O)C2C(=O)c3ccccc3S(=O)(=O)N2C)s1 (configuration not stated)	0.9%	-21.2	-0.7	-3.4	-6.8	-6.8
CC(=O)Nc1ccc(NS(=O)(=O)c2ccc3c(c2)n(C)c(=O)n3C)cc1	-1.7%	5.7	0.4	10.8	-5.5	-6.1
CN(C(=O)Nc1ccccc1)C1CCS(=O)(=O)C1 (configuration not stated)	0.3%	8.5	-0.7	3.6	-0.4	9.5
COc1cc([N+](=O)[O-])ccc1NC(=O)COC(=O)c1ccc(NC(N)=O)cc1	5.8%	7.1	-0.7	-10.7	-2.6	-2.4
CC(C)Cc1nc2n[nH]c(N)c2c2c1COC(C)(C)C2	-1.4%	10.9	-1.6	4.8	-3.7	8.8

Arranged by the number under D2 agonist (descending): three from the list above.
Molecule | CtBP-E1A blk | Six1-Eya2 inh | D2 agonist | D2 potentiator
CCOc1ccc(C2C(C(=O)O)CCC(=O)N2C2CCCCC2)cc1 (configuration not stated) | · | 17.0 | -2.1 | -3.4
COc1cc([N+](=O)[O-])ccc1NC(=O)COC(=O)c1ccc(NC(N)=O)cc1 | 7.1 | -10.7 | -2.6 | -2.4
CC(C)Cc1nc2n[nH]c(N)c2c2c1COC(C)(C)C2 | 10.9 | 4.8 | -3.7 | 8.8
